rRNA inh HTS = inhibits bacterial ribosomal RNA function over humanized ribosomes; E. coli WT GFP vs humanized-ribosome RFP mutants, fluorescence, 24 h; stronger effect = lower value; DMSO median 0, no signal -100; GFP signal change (wild-type ribosome), % (no concentration beside the values); 350,000 tested, 1.6% active; AID 720706;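 active = significant combined selectivity score with lowered wild-type GFP, culture density cut under 30%, mutant RFP and density less affected; inactive = any of these conditions unmet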; also: one replicate is shown; some compounds called inactive have numbers as strong as hits
rRNA inh HTS OD600 = further read-out of rRNA inh HTS, marked with its call; OD600 change, %; measured here: OD600 growth;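 optical density of the mix in the first replicate; 0 = DMSO median and -100 = no signal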
rRNA inh HTS RFP = second read-out of rRNA inh HTS, no call of its own (marks repeat the call); RFP signal change, %; measured here: RFP humanized mutant strains;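 first replicate; 0 = DMSO median and -100 = no signal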
Numbers without * were called inactive; & = joins results of further samples. Some of the compounds tested; count on the stated rates, not on these rows.

Start of the data: the first 7 entries as a preview:
Each structure is followed by: rRNA inh HTS | rRNA inh HTS OD600 | rRNA inh HTS RFP
- COc1ccc2c3c(n(C)c2c1)[C@H](CO)N(Cc1ccccc1Cl)CC31CCN(C(C)=O)CC1
 : 5 | 4 | -0.9
- O=C(C[C@@H]1CC[C@H]2[C@@H](COC[C@@H](O)CN2C(=O)c2ccccc2)O1)Nc1nccs1
 : 4 | 1 | 0.0
- O=C(C[C@H]1C=C[C@@H](NC(=O)c2cccc(F)c2)[C@@H](CO)O1)Nc1nccs1
 : -4 | -11 | 2.1
- C[C@@H]1CN([C@H](C)CO)C(=O)c2cccc(NC(=O)NC3CCCCC3)c2O[C@H]1CN(C)Cc1ccccc1
 : -5 | -10 | -2.2
- COc1ccc(S(=O)(=O)N[C@H]2C=C[C@@H](CC(=O)N3CCc4ccccc4C3)O[C@H]2CO)cc1
 : -1 | -4 | -0.6
- CCCC#Cc1ccc([C@@H]2[C@@H](CO)N3C(=O)CN(C(=O)c4ccc(F)cc4)C[C@@H]23)cc1
 : -26 | -56 | 18
- C[C@@H]1CN([C@H](C)CO)C(=O)c2cc(NC(=O)Nc3ccc4c(c3)OCO4)ccc2O[C@@H]1CN(C)S(=O)(=O)c1ccc(Cl)cc1
 : 1 | -4 | -1.0

The listing, from the first entry:
Each structure is followed by: rRNA inh HTS | rRNA inh HTS OD600 | rRNA inh HTS RFP
- COc1ccc2c3c(n(C)c2c1)[C@H](CO)N(Cc1ccccc1Cl)CC31CCN(C(C)=O)CC1
 : 5 | 4 | -0.9
- O=C(C[C@@H]1CC[C@H]2[C@@H](COC[C@@H](O)CN2C(=O)c2ccccc2)O1)Nc1nccs1
 : 4 | 1 | 0.0
- O=C(C[C@H]1C=C[C@@H](NC(=O)c2cccc(F)c2)[C@@H](CO)O1)Nc1nccs1
 : -4 | -11 | 2.1
- C[C@@H]1CN([C@H](C)CO)C(=O)c2cccc(NC(=O)NC3CCCCC3)c2O[C@H]1CN(C)Cc1ccccc1
 : -5 | -10 | -2.2
- COc1ccc(S(=O)(=O)N[C@H]2C=C[C@@H](CC(=O)N3CCc4ccccc4C3)O[C@H]2CO)cc1
 : -1 | -4 | -0.6
- CCCC#Cc1ccc([C@@H]2[C@@H](CO)N3C(=O)CN(C(=O)c4ccc(F)cc4)C[C@@H]23)cc1
 : -26 | -56 | 18
- C[C@@H]1CN([C@H](C)CO)C(=O)c2cc(NC(=O)Nc3ccc4c(c3)OCO4)ccc2O[C@@H]1CN(C)S(=O)(=O)c1ccc(Cl)cc1
 : 1 | -4 | -1.0
- CCOC(=O)C(C#N)=C1CCC=C(C)C1
 : 9 | 6 | -0.9
- CC(C)NC(=O)N(C)C[C@H]1Oc2c(NC(=O)Nc3ccc(C(F)(F)F)cc3)cccc2C(=O)N([C@@H](C)CO)C[C@H]1C
 : -1 | 4 | 0.2
- CC(C)C[C@@H]1CN(CCCC[C@H]2CNC(=O)C(=O)N2CCC2CCCCC2)C(=O)C(=O)N1Cc1ccccc1
 : -39 | -56 | -9.2
- CCCNC(=O)C1(C)CCN(C(=O)c2cccc(C#N)c2)C1 (stereo unspecified)
 : 3 | 7 | -2.3
- C[C@H]1CN([C@@H](C)CO)C(=O)Cc2cc(NC(=O)Cc3ccccc3)ccc2O[C@@H]1CN(C)S(=O)(=O)c1ccc(F)cc1
 : -2 | 1 | -2.8
- CCCNC(=O)N1CC2(CN(Cc3cccc(OC)c3)C2)c2c(n(C)c3cc(OC)ccc23)[C@@H]1CO
 : -1 | -14 | 12
- CC=Cc1ccc2n(c1=O)C[C@H]1[C@H](CO)[C@@H](C(=O)N3CCCCC3)N(Cc3ccccc3OC)[C@@H]21 (mixture of isomers)
 : -8 | -8 | -2.6
- C[C@@H]1CN([C@H](C)CO)C(=O)c2cc(C#Cc3ccccc3F)cnc2O[C@@H]1CN(C)C(=O)C1CCCCC1
 : -5 | -35 | 22
- COc1ccc(NC(=O)N(C)C[C@@H]2Oc3c(NC(=O)C4CCOCC4)cccc3C(=O)N([C@H](C)CO)C[C@@H]2C)cc1
 : 2 | 7 | 0.4
- Cc1ccccc1-c1ccc([C@H]2[C@@H](CO)N3CCCCN(C(=O)Nc4ccccc4)C[C@H]23)cc1
 : -58 | -73 | -18
- O=C(C[C@H]1CC[C@H](NC(=O)CCN2CCCCC2)[C@H](CO)O1)Nc1nccs1
 : 5 | 8 | -2.5
- CC1(C(=O)NS(=O)(=O)c2cccc(Cl)c2)CCN1C(=O)Cc1ccc(-c2ccccc2)cc1 (stereo unspecified)
 : -13 | -24 | -5.3
- COCC(=O)Nc1ccc2c(c1)OC[C@@H](C)N(C)C[C@H](C)[C@H](OC)CN(C)C2=O
 : 1 | 8 | -2.2
- CC1(C)CC2(C)CC(=O)C1C(C(=O)O)C2C(=O)O (stereo unspecified)
 : 5 | 12 | 0.1
- C[C@@H]1CN([C@H](C)CO)C(=O)c2cccc(NC(=O)CCCCCC(=O)Nc3ccccc3N)c2O[C@H]1CN(C)C(=O)Nc1ccc2c(c1)OCO2
 : -3 | 3 | -1.2
- C[C@@H]1CN([C@@H](C)CO)C(=O)c2cc(NS(=O)(=O)c3cccs3)ccc2O[C@@H](C)CCCCO[C@H]1CN(C)C(=O)Nc1ccc(F)cc1
 : -2 | -7 | 0.7
- CO[C@@H]1CN(C)C(=O)c2ccc(NC(C)=O)cc2OC[C@@H](C)N(Cc2ccncc2)C[C@H]1C
 : 1 | -2 | -0.5
- COc1ccc(CN(C)C[C@@H]2OCCCC[C@@H](C)Oc3ccc(NS(=O)(=O)c4ccc(F)cc4)cc3C(=O)N([C@H](C)CO)C[C@@H]2C)cc1
 : 4 | -1 | 0.3
- CC(C)CC#Cc1cnc2c(c1)C(=O)N([C@H](C)CO)C[C@@H](C)[C@@H](CN(C)C(=O)Nc1cc(F)ccc1F)O2
 : -1 | -2 | 4.6
- C[C@@H]1CN([C@H](C)CO)C(=O)c2cc(C3=CCCC3)cnc2O[C@@H]1CN(C)C(=O)C1CC1
 : 3 | 7 | -3.8
- C[C@@H]1CCCCO[C@H](CN(C)C(=O)Nc2cccc3ccccc23)[C@@H](C)CN([C@@H](C)CO)C(=O)c2cc(NC(=O)Nc3ccc(F)cc3)ccc2O1
 : 2 | -3 | -0.2
- C[C@H]1CN([C@@H](C)CO)C(=O)c2cc(-c3ccccc3)cnc2O[C@@H]1CN(C)C(=O)Nc1ccccc1
 : 0 | 4 | 1.7
- COc1ccccc1S(=O)(=O)N1CC[C@H]2[C@H](CO)Nc3ccc(Br)cc3[C@H]21
 : -27 | -50 | 0.4
- O=C1NN(CCO)C(=S)Nc2ccccc21
 : 4 | -3 | 0.2
- O=C(c1ccccc1F)N1CC(=O)N2[C@H](CO)[C@H](c3ccc(-c4ccccc4)cc3)[C@@H]2C1
 : 6 | 16 | -1.1
- COc1ccccc1-c1ccccc1[C@@H]1[C@@H](C#N)N(C(=O)C2CC2)[C@@H]1CO
 : 3 | 11 | 3.4
- C[C@H](CO)N1C[C@H](C)[C@@H](CN(C)S(=O)(=O)c2ccc(F)cc2)Oc2ccc(NC(=O)Nc3ccc(C(F)(F)F)cc3)cc2CC1=O
 : 0 | 5 | -3.4
- C[C@@H]1CN([C@@H](C)CO)C(=O)c2cc(-c3ccccc3F)cnc2O[C@@H]1CN(C)Cc1ccccc1F
 : -6 | -13 | 5.6
- C[C@H](CO)N1C[C@H](C)[C@H](CN(C)Cc2ccc(C(=O)O)cc2)OCc2cnnn2CCCC1=O
 : 2 | 8 | -1.2
- CCOC(=O)[C@]12CCCC=C1N(Cc1cccc3ccccc13)C(=O)[C@H](CC(=O)N1CCC(c3ccccc3)CC1)C2
 : -2 | 10 | -6.4
- CCCN1[C@@H]2Cn3c(ccc(C4=CCCCC4)c3=O)[C@H]1[C@@H](C(=O)NCC)[C@@H]2CO
 : -1 | 15 | -2.3
- O=C(C1CCOCC1)N1C[C@@H]2N[C@H](C1)C2c1ccc(-c2ccncc2)cc1 (stereo partly specified)
 : 2&6 | 17&7 | 1.4&-2.0
- C[C@H]1CCCCO[C@@H](CN(C)C(=O)c2ccccc2)[C@@H](C)CN([C@@H](C)CO)C(=O)c2cc(NC(=O)NC3CCCCC3)ccc2O1
 : 0 | -8 | -1.8
- Cc1ccc(S(=O)(=O)N[C@H]2C=C[C@H](CC(=O)N3CCN(c4ccccc4)CC3)O[C@@H]2CO)cc1
 : -3 | -9 | 1.2
- C[C@@H]1CCCCO[C@@H](CN(C)Cc2ccncc2)[C@@H](C)CN([C@@H](C)CO)C(=O)c2cc(NC(=O)Nc3ccc(F)cc3)ccc2O1
 : 2 | -3 | -0.1
- COc1ccc(C(=O)Nc2ccc3c(c2)OC[C@H](C)NC[C@H](C)[C@H](OC)CN(C)C3=O)cc1
 : 0 | 2 | -0.5
- C[C@H](CO)N1C[C@H](C)[C@@H](CN(C)Cc2ccccc2)Oc2ncc(-c3ccccc3F)cc2C1=O
 : 2 | 2 | 0.6
- Cc1noc(C)c1NC(=O)N(C)C[C@@H]1Oc2ccc(NS(=O)(=O)c3cn(C)cn3)cc2CC(=O)N([C@@H](C)CO)C[C@@H]1C
 : 0 | 3 | -0.9
- Cc1cc(C(=O)Nc2cccc3c2O[C@@H](CN(C)Cc2ccc(-c4ccccc4)cc2)[C@H](C)CN([C@@H](C)CO)C3=O)n(C)n1
 : 3 | 4 | -1.1
- COc1ccc2c3c(n(C)c2c1)[C@H](CO)N(S(=O)(=O)c1ccccc1)CC31CCN(C)CC1
 : -5 | -1 | -0.9
- O=C1c2ccccc2C2N1CCCN2C(=O)c1sc2ccccc2c1Cl (stereo unspecified)
 : -39 | -64 | -8.8
- Cc1noc(C)c1S(=O)(=O)Nc1ccc2c(c1)C(=O)N([C@H](C)CO)C[C@H](C)[C@H](CN(C)C(=O)NC1CCCCC1)OCCCC[C@H](C)O2
 : 1 | -2 | 0.2
- C[C@@H]1CN([C@@H](C)CO)C(=O)c2cccc(NS(=O)(=O)c3ccc(F)cc3)c2O[C@@H]1CN(C)Cc1ccc2c(c1)OCO2
 : 1 | 8 | -2.7
- COc1ccc(C(NC(=O)C2CCN(CCCOc3ccccc3)CC2)c2cccs2)cc1 (stereo unspecified)
 : 4 | 8 | 6.6
- COc1ccc2c3c([nH]c2c1)[C@@H](CO)N(Cc1cc(F)ccc1F)CC31CCN(C(=O)C2CCC2)CC1
 : 2 | -8 | 3.4
- COc1cccc(S(=O)(=O)N(C)C[C@H]2Oc3cc(C#CCC(C)C)ccc3S(=O)(=O)N([C@@H](C)CO)C[C@@H]2C)c1
 : 0 | 1 | 0.3
- CCCCNC(=O)c1nc(C2CCN(S(=O)(=O)c3ccc(F)c(F)c3)CC2)oc1-c1cccc(C(F)(F)F)c1
 : 21 | 17 | 3.1
- COc1ccccc1CNC(=O)C[C@@H]1CC[C@@H]2[C@H](COc3ccc(NC(C)=O)cc3C(=O)N2C)O1
 : 4 | 5 | -2.0
- CN(C)CC#Cc1ccc([C@@H]2[C@H]3CN(C(=O)Nc4ccc(F)cc4)CCCCN3[C@H]2CO)cc1
 : 2 | 16 | 2.0
- COCC(=O)Nc1ccc2c(c1)OC[C@@H](C)N(C(=O)COC)C[C@@H](C)[C@@H](OC)CN(C)C2=O
 : 3 | 2 | -2.1
- Cc1ccc(S(=O)(=O)Nc2ccc3c(c2)C(=O)N(C)[C@@H]2CC[C@@H](CC(=O)NCCc4ccncc4)O[C@@H]2CO3)cc1
 : 0 | 3 | -1.3
- C[C@@H]1CN([C@@H](C)CO)C(=O)c2cc(NC(=O)CCC(F)(F)F)ccc2O[C@@H](C)CCCCO[C@H]1CN(C)Cc1ccccc1
 : 1 | -6 | -1.8
- COc1ccc(NC(=O)N(C)C[C@@H]2OCCCC[C@H](C)Oc3ccc(NC(=O)c4ccccc4)cc3C(=O)N([C@H](C)CO)C[C@H]2C)cc1
 : 0 | -1 | -2.6

Limited to rRNA inh HTS RFP, for 4 of the compounds above:
SMILES | rRNA inh HTS RFP
COc1ccc(C(NC(=O)C2CCN(CCCOc3ccccc3)CC2)c2cccs2)cc1 (stereo unspecified) | 6.6
COc1ccc2c3c([nH]c2c1)[C@@H](CO)N(Cc1cc(F)ccc1F)CC31CCN(C(=O)C2CCC2)CC1 | 3.4
COc1cccc(S(=O)(=O)N(C)C[C@H]2Oc3cc(C#CCC(C)C)ccc3S(=O)(=O)N([C@@H](C)CO)C[C@@H]2C)c1 | 0.3
CCCCNC(=O)c1nc(C2CCN(S(=O)(=O)c3ccc(F)c(F)c3)CC2)oc1-c1cccc(C(F)(F)F)c1 | 3.1

High-throughput results (PubChem)
